From PubChem
Sa ugtP lethal – kills S. aureus RN4220 lacking UgtP. S. aureus RN4220 ugtP deletion, OD600 growth, 16 h; some inactives read as strong as hits. growth inhibition, % (no concentration beside the values). 330,000 compounds, 0.54% hits;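 active means z-score under -3 and OD600 up to 0.15 on both plates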;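 further: plate controls were untreated wells for no effect and antibiotic for full effect; wells of about 80 µL received 100 nL stock; the first replicate is given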
RN4220 kill – S. aureus RN4220 growth inhibition; OD600, 16 h; inhibition, % (test concentration not listed); 330,000 compounds, 0.33% hits; AID 1259311;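 active means z-score of -3 or lower and OD600 up to 0.18 on both plates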;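 further: plate controls were untreated cells for no effect and reference antibiotic for full effect; stock transfer was 100 nL into about 80 µL; one replicate is shown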
PrP 5UTR inh – inhibition of PrP 5' UTR reporter expression. cell-based PrP 5' UTR mRNA reporter, plate reader. inhibition, % (concentration not given with the values). 340,000 compounds, 0.35% hits;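 active means every replicate at 50% or more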;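 further: 0 = median of the neutral control wells; tested in H4 reporter cells; numbers are from one replicate; inactives centre near -14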
BJeLR lethal – kills HRASV12-expressing BJeLR cells | BJeLR (HRASV12) viability, CellTiter-Glo ATP luminescence, 48 h; reference of the scale not given here | inhibition, % (test concentration not listed) | 300,000 compounds, 0.17% hits;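 active means replicate mean above 50%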;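 further: 50 nL library stock added to about 25 µL; numbers are from one replicate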
Bead autofluor – counter-screen for toxin protease inhibitors: compound fluorescence; 360,000 compounds, 3.1% hits; compound autofluorescence counterscreen, microsphere flow cytometry; stronger effect = higher value; fluorescence intensity (concentration not given with the values);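 active means at least 3 SD above the mean of all compounds, about 16000 in these data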;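 further: 100 nL of 1 mM stock went into each well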
Mtb hypoxia rep – reduces hypoxia-regulated biosensor signal in M. tuberculosis. M. tuberculosis hypoxia-regulated fluorescent reporter, fluorescence. fluorescence inhibition, % (no concentration beside the values). 300,000 compounds, 0.1% hits. AID 1159583;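 active means 35 to 45% if threefold the growth effect, above 45% if 1.5-fold the growth effect; inactive means the rest, general growth blockers included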;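 further: wells of about 50 µL received 100 nL stock; 0% = vehicle wells and 100% = reference inhibitor wells; whole bacteria with a GFP reporter of the hypoxia response; strong numbers were not always called active; many hits fall short of the cut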
Mtb hypoxia rep growth – also measured in Mtb hypoxia rep; calls as there; growth inhibition, %; measured here: M. tuberculosis growth (absorbance);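 0% = vehicle and 100% = reference antibiotic; read after six days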
Numbers without * were called inactive; x = no result given.

SMILES	Sa ugtP lethal	RN4220 kill	PrP 5UTR inh	BJeLR lethal	Bead autofluor	Mtb hypoxia rep	Mtb hypoxia rep growth
CCCC[C@@H]1CNC(=S)N1CCCc1cc(OC)c(OC)c(OC)c1	x	x	-33	-1	3380	x	x
O=C1c2cnc3ncnn3c2CC2c3ccccc3CCN12 (stereo not drawn)	7	4.7	-36	7	2683	10	1
CCOC(=O)C1=C(Cn2cnc3ccccc32)NC(=O)NC1c1ccc(OC)cc1 (stereo not drawn)	-6	1.9	-29	4	16933*	-2	-4
CCN(CC)c1ccc(-n2c(C)c(C(C)=O)c(C(C)=O)c2C)cc1	-6	4.9	-28	-10	8731	-4	12
COc1cc(NC(=O)[C@@H](NC(=O)c2ccco2)C(C)C)c(OC)cc1NC(=O)c1ccccc1	1	5.1	-9	5	4213	9	0
Nc1ccn(Cc2ccc(F)cc2)n1	5	1.7	-22	14	4705	-3	7
CCOC(=O)CC1C(=O)NCCN1C(=O)c1cc2c(=O)n3ccccc3nc2s1 (stereo not drawn)	6	14	x	1	x	-5	10
COc1ccc(CCNC(=O)COC(=O)C23CC4CC(CC(C4)C2)C3)cc1	-3	0.1	13	3	2022	3	1
O=C(C1=C(O)C(=O)N(c2ncccn2)C1c1cccc(Cl)c1)c1ccco1 (stereo not drawn)	-2	6.8	-37	-13	9608	16	19
CC1CCN(Cc2cc(=O)oc3cc(O)c(Cl)cc23)CC1	6	4.1	-7	-3	3861	17	-4
CCOC(=O)N=Nc1c(O)n(C)c2ccccc12	3	3.3	-10	-8	2414	-4	-6
O=C(NN=Cc1ccncc1)C12CC3CC(CC(C3)C1)C2	7	9.0	x	x	x	-2	5
CNC(=O)c1c(Cl)cnn1-c1ccc(F)cc1	2	3.6	-50	5	4503	-2	-14
CCCCC[n+]1ccn(C2=C([O-])c3ccccc3C(=O)/C2=N\S(=O)(=O)c2ccc(Cl)cc2)c1	x	x	-5	6	3544	x	x
COc1cc(/C=C2/C(=O)NN(c3cccc(C)c3)C2=O)ccc1OC(=O)c1ccco1	2	5.2	-40	13	2477	1	7
Cc1ccc(Cl)cc1NC(=O)COC(=O)c1ccc(N2CCCC2)c([N+](=O)[O-])c1	-1	3.2	x	0	x	6	2
CC(C)NC(=O)N(C)C[C@H]1Oc2ccc(NC(=O)Cc3ccccc3)cc2C(=O)N([C@H](C)CO)C[C@@H]1C	5	0.5	-30	x	3624	-7	2
CCCNC(=O)CN(c1ccc(F)c(Cl)c1)S(C)(=O)=O	-1	0.4	-29	-1	11397	-3	5
COCCNC(=O)Cn1ccc2cc(S(=O)(=O)N3CCCCC3)ccc21	2	4.4	-26	1	5733	8	1
CC(C)N1CCN(Cc2cccc([N+](=O)[O-])c2)CC1	-4	-2.4	-18	1	4064	0	-4
O=C(COC(=O)/C=C/c1ccc([N+](=O)[O-])cc1)NCC1CCCCC1	10	8.0	2	x	2784	3	-6
C=CCn1c(O)c(N=Nc2nc3ccccc3c(=O)n2-c2ccccc2)c2ccccc21	5	2.8	-29	1	6832	5	0
O=C(COC(=O)C1C2CC3OC(=O)C1C3C2)Nc1ccc(F)cc1 (stereo not drawn)	3	3.9	1	8	3714	-7	0
O=C1CCC(C(=O)N2CCCCO2)CN1CCc1ccccc1 (stereo not drawn)	0	2.7	-25	3	5889	8	2
CCCCCCOC(=O)Sc1nc2ccccc2o1	7	3.2	-21	-4	8620	-3	7

Pulled by compound from the entries so far (4):
SMILES	Sa ugtP lethal	RN4220 kill	PrP 5UTR inh	BJeLR lethal	Bead autofluor	Mtb hypoxia rep	Mtb hypoxia rep growth
CCCCC[n+]1ccn(C2=C([O-])c3ccccc3C(=O)/C2=N\S(=O)(=O)c2ccc(Cl)cc2)c1	x	x	-5	6	3544	x	x
CC(C)N1CCN(Cc2cccc([N+](=O)[O-])c2)CC1	-4	-2.4	-18	1	4064	0	-4
O=C1c2cnc3ncnn3c2CC2c3ccccc3CCN12 (stereo not drawn)	7	4.7	-36	7	2683	10	1
COc1cc(NC(=O)[C@@H](NC(=O)c2ccco2)C(C)C)c(OC)cc1NC(=O)c1ccccc1	1	5.1	-9	5	4213	9	0

Other structures.
SMILES	Sa ugtP lethal	RN4220 kill	PrP 5UTR inh	BJeLR lethal	Bead autofluor	Mtb hypoxia rep	Mtb hypoxia rep growth
N=c1sccn1CC(=O)Nc1ccc(S(=O)(=O)N2CCOCC2)cc1	3	3.1	-3	-15	x	x	x
O=[N+]([O-])c1ccc(NC(=S)N2CCCC2)cc1	9	2.6	-9	0	3327	0	2
Cc1nn(-c2ccccc2)c2c1C(c1ccc3c(c1)OCO3)SCC(=O)N2 (stereo not drawn)	1	6.7	-8	-1	12596	9	5
Cc1cc(C)c(SCCc2ccncc2)c(C)c1	7	8.7	-26	11	3841	5	-2
COC(=O)/C=C(\C)NC(=O)c1cccs1	-4	6.0	-20	12	18031*	-1	9
CCOC(=O)C1CCN(S(=O)(=O)c2ccccc2)CC1	9	1.9	-17	1	3251	-3	-3
CC(C)c1cc(C(=O)N2CCCC(CCC(=O)N3CCN(c4ccccn4)CC3)C2)no1 (stereo not drawn)	9	4.4	-18	17	4424	4	4
CC(=O)NC(=O)NC(C)Cc1ccccc1 (stereo not drawn)	11	4.7	-9	0	2820	x	x
O=[N+]([O-])c1c(NCCCO)cc(Sc2nc3ccccc3s2)c2nonc12	101*	87*	-16	-3	23409*	21	13
CCOC(=O)c1c(NC(=O)CN2CCN(C(=O)c3ccco3)CC2)sc2c1CCCC2	2	1.5	-2	-27	6704	-9	-5
Cc1oc2nc(SCC(=O)NCc3cccnc3)nc(N)c2c1C	-3	-4.0	0	1	2925	5	8
COc1ccc(C(C)=NNC(=O)CNC(=O)C2COc3ccccc3O2)c(OC)c1 (stereo not drawn)	6	4.0	x	x	x	6	11
S=C(Nc1ccccc1)Nc1ccc(Cl)cc1Cl	20	-6.4	-27	10	2252	x	x
O=C(O)CCSc1nnc(-c2ccccc2)n1-c1ccccc1	4	1.8	-10	-1	22080*	2	9
CCOc1ccc2[nH]c(C(=O)N/N=C/c3ccc(OC)cc3)cc2c1	x	x	31	32	3115	x	x
CSc1nnc(C(C)(C)C)c(=O)n1N=Cc1ccccc1O	-14	2.2	x	x	x	-4	-8
O=C(Nc1nnc(-c2ccccn2)o1)c1cccc(Cl)c1	15	27	-13	4	3409	-5	-4
COCCNC(=O)C(c1ccc(F)cc1)N(Cc1ccco1)C(=O)CCC(=O)Nc1ccccn1 (stereo not drawn)	6	1.4	-17	-13	3681	2	7
Cc1cc(C)n(-c2ccc(C(=O)OCC(=O)Nc3ccccc3[N+](=O)[O-])cc2)n1	10	8.5	-2	-1	6812	2	-4
O=C1/C(=C/c2ccccn2)SC(=S)N1NS(=O)(=O)c1ccccc1	28	55	36	1	3033	10	-3
Cn1c(=O)n(C)c2cc(S(=O)(=O)NCCOCCO)ccc21	4	4.5	-23	-4	6633	-4	1
O=C(CCn1c(SCC(=O)NCc2ccco2)nc2ccccc2c1=O)NCCc1ccccc1	x	x	-31	8	22374*	x	x
O=C(CCC(=O)N1CCN(S(=O)(=O)c2ccccc2)CC1)NC1CCCc2ccccc21 (stereo not drawn)	-5	2.1	-15	7	9000	3	17
O=C(NCc1nnc2n1CCCCC2)c1ccc(Cl)cc1Cl	-1	2.0	-12	10	3191	5	4
Cc1c2cn[nH]c(=O)c2c(C)n1Cc1ccc(F)cc1	-3	-5.2	-13	-9	5006	11	1
More structures follow:
SMILES	Sa ugtP lethal	RN4220 kill	PrP 5UTR inh	BJeLR lethal	Bead autofluor	Mtb hypoxia rep	Mtb hypoxia rep growth
CCOc1ccccc1N1CCN(C(=O)c2cc(-c3cccnc3)nc3c(Cl)cccc23)CC1	7	5.8	-14	25	6433	3	2
COc1ccc(S(=O)(=O)Cc2ccc(C(=O)N3CCN(Cc4ccccc4)CC3)o2)cc1	13	0.0	2	3	5751	x	x
CCN(CC(=O)NCCCN1CCOCC1)S(=O)(=O)c1ccc(F)cc1	2	2.1	-6	3	6063	15	-1
O=C(Cn1c(=O)n(CC2CS2)c2ccccc21)N1CCCCC1 (stereo not drawn)	7	4.8	-1	1	3383	3	-1
O=C(CCCN1C(=O)CCC1=O)Nc1ccccc1F	13	5.0	-24	-4	22328*	5	-2
O=[N+]([O-])c1ccc(/C([O-])=C(/C(=S)Nc2ccccc2F)[n+]2ccccc2)cc1	-7	0.1	-37	9	4244	-19	-1
COc1ccc(/C=C(/NC(=O)c2ccccc2)C(=O)NCC2CCCO2)cc1 (stereo not drawn)	-1	8.6	-49	-10	5392	-4	-3
COc1ccc(-c2nnc3sc(COc4ccc(C)cc4)nn23)cc1	-5	3.6	-3	3	4619	x	x
CCOC(=O)c1c(NC(=O)CC2SC(N)=NC2=O)sc(C)c1C (stereo not drawn)	2	2.3	-12	-5	2035	11	6
CCc1cc(C(=O)Nc2ccccc2)cs1	3	4.0	-103	6	16734*	6	17
O=C(Nc1ccc2c(c1)OCO2)c1c(F)cccc1F	6	4.8	-18	4	11209	6	3
CN1C(=O)NC(=O)/C(=C\c2ccc([N+](=O)[O-])o2)C1=O	x	x	-29	9	2588	x	x
CCCCCCn1c(=O)[nH]c2nc3cc(N)ccc3nc2c1=O	-3	2.7	x	-14	x	-5	7
Cc1ccc(N2CC(C(=O)Nc3cc(C)ccc3F)CC2=O)cc1 (stereo not drawn)	-2	2.5	-13	-10	3831	2	13
CCOC(=O)C1CCN(C(c2cc3c(C)ccc(C)c3[nH]c2=O)c2nnnn2C2CCCCC2)CC1 (stereo not drawn)	-4	-1.9	-12	0	38836*	-8	9
CCC(NC(=O)CCc1c(C)c2cc3c4c(oc3cc2oc1=O)CCCC4)C(=O)O (stereo not drawn)	-8	2.3	9	6	3887	2	6
CC1=C(C(=O)Nc2ccccc2)C(c2ccncc2)C(C#N)=C(SCC(=O)NC(C)C)N1 (stereo not drawn)	-2	9.4	-21	7	3504	11	13
O=C(O)C1C2C=CC(C3CC23)C1C(=O)NCCc1ccccc1 (stereo not drawn)	6	5.3	-26	-2	2832	14	12
CSc1ccccc1C(=O)NCCCn1ccnc1	1	3.0	-17	17	3969	1	-3
COc1ccc(CNC(=S)NN=Cc2ccncc2)cc1	-3	3.3	x	x	x	7	10
O=C(O)CCCCCN1C(=O)C(=O)/C(=C(/O)c2ccccc2)C1c1ccccc1 (stereo not drawn)	6	3.9	-16	x	2377	x	x
CCOc1cc(N2CCOCC2)c(OCC)cc1NC(=O)c1oc2ccccc2c1C	13	11	-29	-10	3740	3	4
CC(C)C1Cc2c(sc(NC(=S)NC(=O)c3ccccc3)c2C#N)CO1 (stereo not drawn)	20	-0.2	-13	-2	2558	-2	2
CC(C)(C)OC(=O)N1CCC[C@H]1c1nnc(SCc2c(F)cccc2Cl)o1	4	3.0	-18	-2	2769	x	x
CCc1ccc(/C(C)=N/NC(=O)CNC(=O)/C=C/c2ccco2)cc1	x	x	2	-2	4368	x	x

Six of the compounds above, as a markdown table:
| SMILES | Sa ugtP lethal | RN4220 kill | PrP 5UTR inh | BJeLR lethal | Bead autofluor | Mtb hypoxia rep | Mtb hypoxia rep growth |
| --- | --- | --- | --- | --- | --- | --- | --- |
| O=C(CCn1c(SCC(=O)NCc2ccco2)nc2ccccc2c1=O)NCCc1ccccc1 | x | x | -31 | 8 | 22374* | x | x |
| O=C(CCC(=O)N1CCN(S(=O)(=O)c2ccccc2)CC1)NC1CCCc2ccccc21 (stereo not drawn) | -5 | 2.1 | -15 | 7 | 9000 | 3 | 17 |
| O=C(Cn1c(=O)n(CC2CS2)c2ccccc21)N1CCCCC1 (stereo not drawn) | 7 | 4.8 | -1 | 1 | 3383 | 3 | -1 |
| COc1cc(/C=C2/C(=O)NN(c3cccc(C)c3)C2=O)ccc1OC(=O)c1ccco1 | 2 | 5.2 | -40 | 13 | 2477 | 1 | 7 |
| O=C(COC(=O)C1C2CC3OC(=O)C1C3C2)Nc1ccc(F)cc1 (stereo not drawn) | 3 | 3.9 | 1 | 8 | 3714 | -7 | 0 |
| O=C1/C(=C/c2ccccn2)SC(=S)N1NS(=O)(=O)c1ccccc1 | 28 | 55 | 36 | 1 | 3033 | 10 | -3 |

Random draw from the library (roughly 4% active in at least one column).
